# Beta cell apopt: beta cell apoptosis inhibition. 300,000 tested, 0.8% active. INS-1E cytokine-induced death, ATP luminescence, 48 h; percent of positive-control rescue, neutral wells zero. protection from apoptosis, % (test concentration not listed);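 active means all replicates at 75% or more, or half of them and the mean; inconclusive means half reach 75% but not the mean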;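 further: 0% = cytokine-treated negative control wells and 100% = positive control rescue; higher means more ATP so stronger rescue from cytokine killing; wells of about 40 µL received 100 nL stock; the first replicate is given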
# rRNA inh HTS: inhibits bacterial ribosomal RNA function over humanized ribosomes; GFP signal change (wild-type ribosome), % (test concentration not listed); AID 720706; 350,000 tested, 1.6% active; E. coli WT GFP vs humanized-ribosome RFP mutants, fluorescence, 24 h; hits give low values; DMSO median 0, no signal -100;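 active means significant combined selectivity score with lowered wild-type GFP, culture density cut under 30%, mutant RFP and density less affected; inactive means any of these conditions unmet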; further: one replicate is shown; some compounds called inactive have numbers as strong as hits
# FGF22 binding: binders of recombinant human FGF22 by thermal shift | Q9HCT0 | SYPRO orange fluorescence; percent of sucrose octasulfate shift, DMSO zero | AID 651658 | calls only at 9.99 µM | 340,000 tested, 1.5% active;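 active means melting point raised past a set limit in the mean and every replicate; inconclusive means no clear call; three in four hits are not shown here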
# Target sequence (Q9HCT0 whole entry, looked up): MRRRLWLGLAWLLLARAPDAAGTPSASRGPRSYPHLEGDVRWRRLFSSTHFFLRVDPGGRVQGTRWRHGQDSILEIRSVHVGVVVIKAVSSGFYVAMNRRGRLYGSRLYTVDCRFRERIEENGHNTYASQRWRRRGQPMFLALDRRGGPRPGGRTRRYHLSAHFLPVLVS
# ALR inh: inhibitors of human sulfhydryl oxidase ALR. 290,000 tested, 3.8% active. inhibition, % (no concentration beside the values). purified ALR, DTT oxidation, H2O2 HRP-luminol luminescence. P55789;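 active means mean and each replicate at 75% or more; inconclusive means only one of the two met; inactive means neither met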;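 further: stock transfer was 7.5 nL into about 7.5 µL; 0% = neutral wells and 100% = wells with inactivated enzyme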
# Target sequence (P55789 whole entry, looked up): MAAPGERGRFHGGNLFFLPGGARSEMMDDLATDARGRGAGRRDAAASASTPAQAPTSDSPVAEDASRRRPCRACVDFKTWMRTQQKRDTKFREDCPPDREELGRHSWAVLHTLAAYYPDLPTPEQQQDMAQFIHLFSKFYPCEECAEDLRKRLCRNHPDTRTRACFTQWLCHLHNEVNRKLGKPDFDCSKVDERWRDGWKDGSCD
# AF4-AF9 inh: blocks AF4 peptide binding to human AF9; AlphaScreen, biotin-AF4 peptide binding to FLAG-AF9; inhibition, % at 10 µM; 350,000 tested, 0.47% active; AID 651704;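 active means every replicate reaching a set inhibition limit, whatever the replicate mean, cut at about 25% in these data; inconclusive means mean inhibition reaches that limit but some replicates miss it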;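 further: 0% = plate neutral control median and 100% = total signal loss; the record names both 10 and 1 µM as test concentration; the first replicate is given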
# Target sequence (P42568 whole entry, looked up): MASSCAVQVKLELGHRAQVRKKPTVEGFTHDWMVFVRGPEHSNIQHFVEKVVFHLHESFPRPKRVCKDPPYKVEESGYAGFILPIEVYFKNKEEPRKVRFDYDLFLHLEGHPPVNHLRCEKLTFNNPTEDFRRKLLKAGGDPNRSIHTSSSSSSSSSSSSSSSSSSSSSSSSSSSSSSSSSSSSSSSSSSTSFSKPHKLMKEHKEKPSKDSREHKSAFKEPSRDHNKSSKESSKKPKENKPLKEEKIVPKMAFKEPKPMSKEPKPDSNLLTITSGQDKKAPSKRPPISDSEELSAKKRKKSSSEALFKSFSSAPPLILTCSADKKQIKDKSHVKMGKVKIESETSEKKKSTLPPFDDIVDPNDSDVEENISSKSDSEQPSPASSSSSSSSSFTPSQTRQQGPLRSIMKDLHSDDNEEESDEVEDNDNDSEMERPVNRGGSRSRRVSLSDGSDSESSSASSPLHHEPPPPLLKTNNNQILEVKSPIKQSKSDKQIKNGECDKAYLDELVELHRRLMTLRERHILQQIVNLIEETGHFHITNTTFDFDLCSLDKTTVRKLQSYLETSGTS
# T cruzi repl: blocks replication of Trypanosoma cruzi; T. cruzi beta-gal in NIH3T3, luminescence, 90 h; 300,000 tested, 1.4% active; inhibition, % (concentration not given with the values);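 active means mean inhibition across valid replicates above about 55%, limit read from the data; inconclusive means mean below that limit but half or more replicates reach it; inactive means mean below it, under half of replicates reach it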;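 further: signal also drops with host cell toxicity which is not excluded here; 0% = plate median of DMSO wells and 100% = zero luminescence signal; higher percent means less beta-gal luminescence so fewer parasites; stock transfer was 50 nL into about 50 µL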
# Calb FLC: affects C. albicans growth with fluconazole. C. albicans CaCi-2 (fluconazole-resistant clinical isolate) + fluconazole, Alamar Blue growth, 48 h. growth inhibition, % (test concentration not listed). 300,000 tested, 0.57% active;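 active means most replicates above 75%; inconclusive means exactly half above 75%; inactive means most below 75%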;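 further: all wells also contain fluconazole at 8 µg/ml as a sub-toxic cotreatment; 0% = median of DMSO wells and 100% = median of geldanamycin control wells; wells of about 8 µL received 7.5 nL stock; the first replicate is given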
# RanGTP-Imp inh: inhibitors of RanGTP-importin-beta interaction, primary screen, biochemical, FRET, CFP-Ran, YFP-importin-beta, homogeneous; cell-free CFP-Ran/YFP-importin-beta FRET ratio; inhibition, % (no concentration beside the values); 300,000 tested, 1.1% active;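 active means most replicates above 15%; inconclusive means exactly half above 15%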;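 further: 0% = DMSO wells and 100% = Ran loaded with GDP instead of GTP; wells of about 40 µL received 100 nL stock; the first replicate is given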
# rRNA inh HTS OD600: second read-out of rRNA inh HTS, no call of its own (marks repeat the call); OD600 change, %; measured here: OD600 growth;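 optical density of the mix in the first replicate; 0 = DMSO median and -100 = no signal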
# rRNA inh HTS RFP: second read-out of rRNA inh HTS, no call of its own (marks repeat the call); RFP signal change, %; measured here: RFP humanized mutant strains;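 first replicate; 0 = DMSO median and -100 = no signal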
# The depositor's hits bear a star; i = inactive; ? = inconclusive; nt = no result given; + = active, no number. Not all compounds are listed; the hit share may differ from the screen's.
# Values in the order: Calb FLC, AF4-AF9 inh, rRNA inh HTS OD600, T cruzi repl, RanGTP-Imp inh, Beta cell apopt, FGF22 binding, ALR inh, rRNA inh HTS, rRNA inh HTS RFP
Cc1c(C#N)c(NC(=O)CCl)n(Cc2ccc(F)cc2)c1C
    -16, 5.0, 5, 15, -6.3, -4, i, 32, 11, 55
COc1ccc(C(=O)CC(=O)C(=O)NCCc2cccc(C)c2)cc1
    -25, nt, nt, 1, 0.1, 2, nt, 3, nt, nt
CCC(Oc1ccc(F)cc1)C(=O)N1CCCCCCC1 (stereo not given)
    2, 2.9, -6, 0, -0.4, -5, i, 3, -2, 1.5
Cc1ccc(-c2csc(C3=C(O)CN(NC(=O)c4ccco4)C3=N)n2)cc1
    -2, 1.1, 2, -3, 0.8, 0, i, -6, 14, 2.6
OCCNc1nc(Nc2ccccc2C(F)(F)F)nc(N2CCCC2)n1
    -19, -1.5, -40, 2, 0.6, -10, i, nt, -32, -2.2
CS(=O)(=O)N(CCc1ccccc1)CC(=O)N1CCN(c2ccccc2F)CC1
    1, nt, nt, -5, -1.4, 2, nt, -1, nt, nt
O=C(Oc1ccccc1N1CCOCC1)c1sccc1Br
    -4, 2.9, -4, nt, -3.3, 3, i, 10, -15, 2.7
COc1cc(NC(=S)NC(=O)c2ccc(F)cc2)ccc1NC(=O)c1ccco1
    -4, nt, nt, -16, 1.6, 6, nt, -31, nt, nt
COc1ccc(C)cc1NC(=O)c1sc2ncn(CC(=O)N3CCCCC3)c(=O)c2c1C
    4, 0.2, 10, -11, -1.2, 9, i, 7, 13, 2.1
Cc1nc(Nc2cccc(F)c2)c2oc3ccccc3c2n1
    0, 1.1, -24, 7, 0.0, 18, i, 42, 3, -4.9
CCOCC(O)CS(=O)Cc1ccccc1 (stereo not given)
    3, nt, nt, -14, -1.7, -5, nt, -7, nt, nt
CN(C)S(=O)(=O)c1cccc(NC(=O)C2Cc3ccccc3CN2C(=O)c2ccco2)c1 (stereo not given)
    -7, 0.4, -32, 8, 3.2, -7, i, 6, -21, -7.1
CCc1nnc(NC(=O)CCS(=O)(=O)c2ccc(C)cc2)s1
    32, 6.9, 21, -8, 0.7, -7, i, nt, 16, -1.6
CN(C)c1ccc(NC(=O)CSc2nc3ccccc3c(=O)n2C2CCCCC2)cc1
    1, nt, nt, 35, 2.3, 10, nt, 3, nt, nt
O=C(N/N=C/c1c(O)ccc2ccccc12)c1ccc(CO)nc1
    11, 2.4, -25, 9, 3.5, nt, i, -28, -30, -13
COc1cc(C(=O)NC2CCN(CC(=O)NC3CCCCC3C)CC2)cc(OC)c1OC (stereo not given)
    -2, -1.9, 6, -3, 7.7, -3, i, 0, 0, -0.2
Cc1ccc(N=C2NC(=O)/C(=C/C=C/c3ccco3)S2)cc1
    0, -0.2, 12, -7, 2.1, -2, i, 68, -2, 24
Nc1nncn1C(=O)c1ccc(Cl)cc1Cl
    -34, -3.5, -8, -6, 2.2, -11, i, 6, 1, -9.9
O=C(NCCC1=CCCCC1)C1CCN(Cc2cnn(-c3ccccc3)c2-n2cccc2)CC1
    -4, nt, nt, 17, 3.5, 9, nt, -8, nt, nt
CC12CCC(C(=O)Nc3cccc(Cl)c3Cl)([C@H](Br)C1=O)C2(C)C (stereo not given in full)
    1, nt, 7, 4, 0.6, -5, i, -3, 0, -1.8
O=C(Nc1cccnc1)c1ccccc1Cl
    14, -6.4, 2, -9, 6.0, -13, i, nt, -5, -4.0
CN1CCc2c(sc(N)c2C(=O)O)C1
    0, ?, 16, -2, 50*, -1, i, 2, 12, 4.0
CCN(CC)S(=O)(=O)c1cc(C(=O)OCC(=O)Nc2c(F)cccc2F)ccc1F
    -3, -4.7, -5, -2, -3.4, 6, i, nt, 1, -0.8
O=C1c2ccccc2C(=O)c2c1cccc2N1CCCC1
    80*, 40*, nt, 16, 0.0, -1, i, nt, nt, nt
CCCCNC(=O)C1c2cc(OC)c(OC)cc2C(=O)N(C)C1c1cccs1 (stereo not given)
    28, -2.8, 7, -1, 1.8, -3, +, nt, 5, 1.4
COc1ccc(NC(=O)C(c2ccccc2)N(C)C(=O)CNC(C)=O)cc1 (stereo not given)
    8, nt, nt, -6, -4.4, -6, nt, -14, nt, nt
COc1cccc(-c2nnc(SCC(=O)N3CCCc4ccccc43)o2)c1
    3, nt, nt, 21, 5.6, -7, nt, 87*, nt, nt
O=C(CN1CCc2ccccc2C1)Nc1cccc(S(=O)(=O)N2CCCC2)c1
    -1, 2.7, 17, 7, 2.2, -2, i, 3, 5, -0.2
Cc1ccc(CC(=O)NC(C)CCc2ccccc2)cc1 (stereo not given)
    2, nt, nt, 15, 2.8, -1, nt, -4, nt, nt
Cc1ccc(S(=O)(=O)Oc2ccc(/C=N/NC(=O)c3cccnc3)cc2)cc1
    7, -1.1, -21, 1, 0.1, 16, i, -4, -21, 3.7
CCN(CC)c1nc(Nc2ccccc2)nc(Oc2ccc(C(=O)OC)cc2)n1
    13, nt, nt, 35, -6.5, 5, nt, -10, nt, nt
COCCn1c(SCC(=O)c2c(N)n(C3CC3)c(=O)[nH]c2=O)nnc1-c1cccc(C)c1
    nt, 13, 21, nt, nt, -4, i, 3, 4, 2.2
CCOC(=O)N1CCN(C(=O)c2c[nH]c3ccc(S(=O)(=O)N(C)c4ccc(OCC)cc4)cc3c2=O)CC1
    1, -0.5, -6, -6, -3.2, 2, i, -5, -4, -0.6
Cn1c(-c2ccccc2)cnc1SCC(=O)NCc1ccco1
    0, 0.0, -3, -7, 2.0, -1, i, 5, -3, 0.5
CC(=O)c1ccc(NC(=O)/C(=C\c2ccccc2)NC(=O)/C=C/c2ccccc2)cc1
    22, nt, nt, -24, -3.0, 0, nt, -10, nt, nt
COc1cc(S(=O)(=O)Nc2ncn[nH]2)ccc1Cl
    4, -0.6, 11, -3, 2.4, -5, i, nt, 5, 1.7
CC1(C)CC(NC(=O)c2cc(S(=O)(=O)N3CCOCC3)c(Cl)cc2Cl)CC(C)(C)N1
    -4, -6.2, 5, -2, 6.2, -5, i, 4, 1, -3.1
O=C(c1cccs1)N1CCN(C23CC4CC(CC(C4)C2)C3)CC1
    -26, -0.5, 17, 13, 0.0, -4, i, nt, 23, 9.3
Cc1ccccc1OCC(=O)Nc1ccc2c(c1)Cc1ccccc1-2
    -13, -0.6, -4, -17, -1.1, -7, i, -5, 1, -3.5
Cc1cc2c3c([nH]c2cc1S(=O)(=O)N1CCC2(CC1)OCCO2)CC(C)(C)CC3=O
    -8, -6.9, -13, 6, 6.3, nt, i, 37, -8, 4.9

# Six of the compounds above, with bars between the fields:
mol | Calb FLC | AF4-AF9 inh | rRNA inh HTS OD600 | T cruzi repl | RanGTP-Imp inh | Beta cell apopt | FGF22 binding | ALR inh | rRNA inh HTS | rRNA inh HTS RFP
O=C(c1cccs1)N1CCN(C23CC4CC(CC(C4)C2)C3)CC1 | -26 | -0.5 | 17 | 13 | 0.0 | -4 | i | nt | 23 | 9.3
CC(=O)c1ccc(NC(=O)/C(=C\c2ccccc2)NC(=O)/C=C/c2ccccc2)cc1 | 22 | nt | nt | -24 | -3.0 | 0 | nt | -10 | nt | nt
Cc1cc2c3c([nH]c2cc1S(=O)(=O)N1CCC2(CC1)OCCO2)CC(C)(C)CC3=O | -8 | -6.9 | -13 | 6 | 6.3 | nt | i | 37 | -8 | 4.9
Cn1c(-c2ccccc2)cnc1SCC(=O)NCc1ccco1 | 0 | 0.0 | -3 | -7 | 2.0 | -1 | i | 5 | -3 | 0.5
CCN(CC)c1nc(Nc2ccccc2)nc(Oc2ccc(C(=O)OC)cc2)n1 | 13 | nt | nt | 35 | -6.5 | 5 | nt | -10 | nt | nt
COc1cc(S(=O)(=O)Nc2ncn[nH]2)ccc1Cl | 4 | -0.6 | 11 | -3 | 2.4 | -5 | i | nt | 5 | 1.7

# The list continues.
# Values in the order: Calb FLC, AF4-AF9 inh, rRNA inh HTS OD600, T cruzi repl, RanGTP-Imp inh, Beta cell apopt, FGF22 binding, ALR inh, rRNA inh HTS, rRNA inh HTS RFP
O=C(O)CNC(=O)c1ccc(OC(F)F)cc1
    7, 0.3, -1, -16, 4.6, -1, i, 4, 6, -6.1
c1ccc(-c2csc(N3CCCCCC3)n2)cc1
    -23, nt, nt, 0, 1.4, 5, nt, 23, nt, nt
O=C(O)CNC(=S)N(Cc1ccccc1Cl)C1CCCC1
    14, -3.8, -6, -15, -0.7, -3, i, 14, -5, -1.6
O=C(CSc1ccc(F)cc1)NC(=O)NCc1ccccc1
    -2, -7.3, -3, 18, 7.8, -2, i, -6, -6, -0.4
C/C(=C/C=N/Nc1nc(N2CCCCC2)nc(N2CCCCC2)n1)c1ccccc1
    -6, nt, nt, 19, 2.3, -5, nt, -4, nt, nt
Cc1ccc2nc(NC(=O)C3CCCN(S(=O)(=O)c4cnc[nH]4)C3)sc2c1 (stereo not given)
    3, 1.2, -11, 4, -3.3, -13, i, 43, -11, -3.2
Cc1ccccc1NC(=O)Cn1nc(-c2ccccc2)nc1-c1ccccc1
    -5, nt, nt, 14, 5.1, -2, nt, -15, nt, nt
Cc1ccc(N(CN2C(=O)C3C4CCC(C4)C3C2=O)C(=O)c2ccco2)cc1 (stereo not given)
    3, -4.9, 1, 15, 6.7, -1, i, -1, -1, 0.9
CCN(CC(=O)NCc1ccc(Cl)cc1)C(=O)/C=C/c1cc(OC)c(OC)c(OC)c1
    -20, 2.4, nt, 5, 1.6, -1, i, nt, nt, nt
Nc1c(S(=O)(=O)c2cccs2)c2nc3ccccc3nc2n1Cc1ccccc1
    7, nt, nt, 36, 1.3, -5, nt, -5, nt, nt
O=C(CSc1nc(C(F)(F)F)cc(=O)[nH]1)Nc1ccc2c(c1)OCCO2
    -3, -1.7, -6, -4, 1.2, nt, i, -15, -10, -2.3
CCCC(=O)NNc1cc(=O)c2c(=O)n(C)c(=O)n(C)c2[nH]1
    0, nt, nt, -5, ?, 3, nt, 2, nt, nt
CCCn1c(SCC(=O)Nc2ccccc2N2CCCCC2)nc2c1c(=O)n(C)c(=O)n2C
    5, 14, -20*, 16, 1.7, -29, i, -3, -29*, -4.3*
CCCOc1ccc(C(=O)NNC(=S)NC(=O)c2cc(-c3ccc(Cl)cc3)nc3ccccc23)cc1
    16, nt, nt, 32, -6.0, 37, nt, -2, nt, nt
CCOc1ccc(N(CC(=O)NCc2ccccc2)C(=O)Cn2nnc(-c3ccc(C)o3)n2)cc1
    1, 1.0, 9, 6, 2.3, -1, i, -1, 3, -0.2
CCc1noc(C)c1C(=O)Nc1cc(Cl)ccc1N1CCOCC1
    11, -3.6, 4, -7, 3.0, 6, nt, -2, 1, -0.3

# One compound at a time (already shown). Values in the order: Calb FLC	AF4-AF9 inh	rRNA inh HTS OD600	T cruzi repl	RanGTP-Imp inh	Beta cell apopt	FGF22 binding	ALR inh	rRNA inh HTS	rRNA inh HTS RFP
# CCOc1ccc(N(CC(=O)NCc2ccccc2)C(=O)Cn2nnc(-c3ccc(C)o3)n2)cc1 is entered as 1	1.0	9	6	2.3	-1	i	-1	3	-0.2
# CCCOc1ccc(C(=O)NNC(=S)NC(=O)c2cc(-c3ccc(Cl)cc3)nc3ccccc23)cc1 is entered as 16	nt	nt	32	-6.0	37	nt	-2	nt	nt

# Bioassay records deposited in PubChem BioAssay by Broad Institute.
